# Source: PubChem BioAssay
# miR-21 reporter: qHTS Assay for Modulators of miRNAs and/orActivators of miR-21; 340,000 tested, under 10 active; Potency, µM (series often up to 38.3 µM), inactives show at the top dose reporter change, positive = more light; HeLa miR-21 FLuc reporter, luciferase, 48 h; AID 2288, 2010; active = well fitted rising curve with a large enough effect; inconclusive = small, poorly fitted or top-dose-only effect; inactive = no such curve, though single readings can be large or run the other way;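 also: % of control where 0% means no effect; miR-21 action dims this reporter so a rising signal means less miR-21 action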
#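 HeLa miR-21-FLuc reporter line, endogenous miR-21; 2000 cells/well in DMEM/10% FBS; compound titration up to ~40uM final, 48 h, 37 degree Celsius; luciferase detection reagent, 15 min lysis, CCD luminescence.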
# GLA inh pH 4.5: qHTS Assay for Inhibitors of Human alpha-Galactosidase at pH 4.5 | purified enzyme, 4-MU-alpha-Gal fluorescence, pH 4.5 | 230,000 tested, under 10 active | activity change, negative = inhibition, % at 105 µM | Alpha-galactosidase A (Homo sapiens), P06280; inconclusive = small, poorly fitted or top-dose-only inhibition, or a rising curve; inactive = flat fitted curve, though single readings scatter; no compound was filed as active;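 also: 0% = full activity with enzyme and -100% = basal without enzyme; dose as in the result columns while the protocol names 77 µM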
# Target sequence (P06280 whole entry, looked up): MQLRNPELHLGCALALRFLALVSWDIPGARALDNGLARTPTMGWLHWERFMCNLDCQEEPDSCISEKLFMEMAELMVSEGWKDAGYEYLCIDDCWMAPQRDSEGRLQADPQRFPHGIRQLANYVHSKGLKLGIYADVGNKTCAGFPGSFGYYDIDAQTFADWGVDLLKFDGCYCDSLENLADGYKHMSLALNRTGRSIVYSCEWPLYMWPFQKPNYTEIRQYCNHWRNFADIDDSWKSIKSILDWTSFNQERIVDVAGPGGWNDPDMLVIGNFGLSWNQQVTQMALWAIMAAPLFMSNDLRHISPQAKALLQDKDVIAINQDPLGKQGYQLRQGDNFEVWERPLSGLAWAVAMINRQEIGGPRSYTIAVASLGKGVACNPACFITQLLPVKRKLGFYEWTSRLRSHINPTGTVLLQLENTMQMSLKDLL
# Rango complex inh: qHTS Assay for Inhibitors of Rango (Ran-regulated importin-beta cargo) - Importin beta complex formation; Importin subunit beta-1 (Homo sapiens), Q14974; Rango CFP/YFP FRET sensor + importin beta, 45 min; Potency, µM (highest dose often 92.2 µM), inactives show top-dose inhibition of complex formation; 0.031% of 340,000 active; AID 540263, 2011; active = rising FRET ratio curve, often small or poorly fitted; inconclusive = mostly compound fluorescence or quenching in the first reads; inactive = flat curves in all reads;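 also: potency is read from the fitted curve at half-maximal effect; 0% = DMSO wells and 100% = buffer wells lacking importin beta; nearly all actives have a fitted effect of over 15% in size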
#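 FRET biosensor (snurportin 1 IBB flanked by EYFP and cerulean), 50 nM, with compound 5 min, then 0.125 microM importin beta in PBS, 1 mM DTT, 0.02% Tween-20, 0.1% BSA. CFP/YFP ratio read after 45 min at room temperature; pre-read flags interference.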
# Rango release inh: qHTS Assay for Inhibitors of RanGTP induced Rango (Ran-regulated importin-beta cargo) - Importin beta complex dissociation | Snurportin-1 (Homo sapiens) + GTP-binding nuclear protein Ran (Homo sapiens) + Importin … | Biochemical FRET Rango-importin beta, RanGTP-induced dissociation | Potency, µM (highest dose often 46.1 µM), without a hit: top-dose activity change, negative = inhibition | 0.071% of 340,000 active; active means falling FRET ratio curve, often poorly fitted, with flat reads before Ran was added; inconclusive means other falling curves, or compound fluorescence or quenching; inactive means flat or rising ratio curve;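 also: potency is read from the fitted curve at half-maximal effect; % of control where 0% means no effect; nearly all actives have a fitted effect of over 45% in size; -100% = wells without RanGTP and RCC1; the record marks most hits as doubtful in a second field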
#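 Compounds sat 5 min at room temperature with 0.1 uM Rango biosensor plus 0.25 uM importin beta, then FRET pre-read. RanGTP-RCC1 (0.6 uM Ran, 2mM GTP, 0.2 uM RCC1) added for 45 min, and the CFP/YFP post-read measured blocked complex dissociation.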
# * = called active by the depositor; ? = inconclusive; nt = no result given. A portion of the library; the hit share may differ from the screen's.
SMILES,miR-21 reporter,GLA inh pH 4.5,Rango complex inh,Rango release inh
Cc1cc2c(c(=O)o1)C(C13C=CC(CC1)C3)C(C#N)=C(N)O2 (stereo unspecified),-1%,-2,?,-10%
COCCNC(=S)NN=C1CCCCCC1,0%,2,5.6%,30%
CCOC(=O)c1sc(NC(=O)c2cc(-c3cccc(O)c3)on2)c(C(=O)OCC)c1C,-5%,1,0.7%,23%
CCc1nnc(SCC(=O)Nc2ccc(N3CCOCC3)cc2)n1C,-5%,nt,2.5%,2%
CNC(=O)c1nc(C)n(-c2ccc(Cl)cc2Cl)n1,-2%,6,1.7%,3%
O=C(Nc1ccccc1)NC1CCS(=O)(=O)C1 (stereo unspecified),-5%,-9,3.8%,20%
Cc1ccc(C)c(OCCC(=O)OCC(=O)N2CCN(S(=O)(=O)c3ccc(Cl)cc3)CC2)c1,nt,nt,-2.8%,1%
CC(=O)Nc1ccc(NCN2C(=O)[C@@H]3[C@H]4CC[C@H](C4)[C@@H]3C2=O)cc1,-1%,4,-1.3%,0%
CC(C)c1ccc(NC2=NCC(=O)N2Cc2cccs2)cc1,-44%,6,1.3%,15%
CC1(C)CC2(CCO1)N1CC3(C)CN2CC(C)(C1)C3O (stereo unspecified),-2%,0,-4.5%,-1%
CCCCN(C)/C=N/c1c(C#N)cnn1-c1ccc(C)cc1,-5%,1,1.3%,-17%
CCOc1ccc(NC(=O)c2ccc(N3CC4CC(C3)c3cccc(=O)n3C4)c(NC(=O)c3ccncc3)c2)cc1 (stereo unspecified),-14%,nt,-2.9%,1%
O=C1c2ccccc2C(=O)N1Cc1nn2c(-c3ccc(Cl)cc3)nnc2s1,-3%,-5,-3.2%,-18%
O=C(CN1CCN(S(=O)(=O)c2ccc(F)cc2)CC1)Nc1ccccc1C(=O)NC1CC1,nt,nt,-0.9%,8%
CC(C)Cc1nc(Cl)c(C#N)c2c1CCCC2,-2%,5,-4.8%,2%
COc1ccc(C(C)=O)cc1COC(=O)c1c(C)nn(-c2ccccc2)c1C,-1%,nt,-1.1%,6%
CN(C)CCCNC(=S)N(CCCN(C)C)Cc1cc2cc3c(cc2[nH]c1=O)OCO3,0%,nt,2.8%,1%
O=C(NCc1ccco1)C1CC(c2cccc([N+](=O)[O-])c2)=NO1 (stereo unspecified),1%,-2,-4.6%,-10%
CC(=O)CSc1nc2ccccc2s1,-35%,-1,-0.1%,-11%
O=C1CC(c2ccco2)CC(O)=C1C=Nc1ccc(Br)cc1 (stereo unspecified),-1%,11,-1.7%,3%
COc1ccccc1C(OC(=O)c1ccco1)C(=O)NCc1ccc(F)cc1 (stereo unspecified),-1%,nt,-0.7%,10%
COc1ccc(NC(=O)CN(C)C(=O)C(Sc2ccccc2)c2ccccc2)cc1 (stereo unspecified),nt,nt,-4.1%,-15%
O=C(O)CCCNC(=O)c1ccc(NC(=O)Cc2ccc(Cl)cc2)cc1,-1%,0,-0.8%,3%
O=C(Nc1cc2c(oc1=O)CCCC2=O)c1ccccc1,-17%,1,-0.2%,1%
Cc1ccc(NC(=O)Cc2ccc3c(c2)OCCO3)cc1S(=O)(=O)N1CCCCC1,17%,0,-3.2%,-12%
SMILES,miR-21 reporter,GLA inh pH 4.5,Rango complex inh,Rango release inh
COc1ccc(C(C(=O)NCC2CCCO2)N(C(=O)Cn2nnc3ccccc32)c2ccc(NC(C)=O)cc2)cc1OC (stereo unspecified),1%,nt,-3.3%,-16%
O=C(CC1SC(N2CCCC2)=NC1=O)Nc1ccc(C(=O)NCc2ccc(F)cc2)cc1 (stereo unspecified),nt,nt,-5.3%,4%
CCOc1ccc(CCNC(=O)CCCn2nc(C)c3c(C)n(-c4ccccc4)nc3c2=O)cc1,2%,nt,4.1%,-11%
CCc1noc(C)c1C(=O)N(CC)CC(=O)NCc1ccc(Cl)cc1,nt,nt,4.1%,-5%
COC(=O)C1=C(C)N(C)C(=S)NC1c1ccc(Cl)cc1 (stereo unspecified),-1%,-1,0.3%,9%
O=C(NCCCN1CCOCC1)C(=O)N/N=C/c1ccc2c(c1)OCO2,-5%,4,-3.4%,0%
CCn1c(C(=O)N2CCc3ccccc3C2)cc2oc3ccccc3c21,-4%,-9,4.6%,0%
Cn1cnnc1SCC(=O)Nc1ccc(OC(F)F)cc1,-7%,-4,2.9%,0%
COc1ccc(CNC(=O)CN2C(=O)NC(C)(c3ccc(Cl)cc3)C2=O)cc1 (stereo unspecified),2%,nt,-0.9%,3%
CSc1sc(C(=O)OC(C)C)c2c1C(=O)CC(C)(C)C2,-2%,-1,4.0%,-6%
COc1ccc(-c2nnn(CC(=O)NCc3ccccc3)n2)cc1OC,-4%,5,-5.4%,-12%
CCN(CC(=O)Nc1cc(Cl)ccc1C)C(=O)c1ccc2c(=O)n3c(nc2c1)CCC3,nt,nt,0.4%,-7%
CC(C)CC1NC(=O)N(CC(=O)Nc2cc(S(=O)(=O)N3CCOCC3)ccc2Cl)C1=O (stereo unspecified),nt,nt,0.0%,0%
O=C(O)CCNS(=O)(=O)c1ccc2c(c1)CCCC2,-4%,4,-0.9%,8%
CS(=O)(=O)NC1c2cccc3cccc(c23)C1N1CCOCC1 (stereo unspecified),-1%,3,3.2%,7%
CCCn1c(NC(=O)c2ccc(Br)cc2)nc2ccccc21,-8%,7,3.4%,-2%
O=[N+]([O-])c1ccc2nc(SCc3cn4cccnc4n3)[nH]c2c1,-1%,-3,?,-4%
Cc1ccc(C(=O)NCCCNC(=O)COc2ccccc2Cl)cn1,-1%,nt,3.4%,10%
COC(=O)CNC(c1ccccc1)c1cc(Br)ccc1N (stereo unspecified),-1%,-14,-1.4%,2%
CCOC(=O)c1c(NC(=O)CN2C(=O)NC3(CCCC3)C2=O)sc(C)c1CC,nt,nt,-1.3%,16%
NC(=O)CC(NC(=O)c1ccccc1)c1ccc(NCCc2ccc(Cl)cc2)c([N+](=O)[O-])c1 (stereo unspecified),-7%,4,0.0%,5%
COc1ccc(N(Cc2ccccc2)S(=O)(=O)c2ccc(C)cc2)cc1,5%,-3,-2.4%,-5%
COc1ccc2cc(-c3nc4ccccc4n3C)c(=O)oc2c1,-55%,1,?,?
Cc1cc(NC(=O)c2cc(-c3ccccn3)nc3ccc(Br)cc23)no1,3%,nt,-0.1%,3%
CC(=O)N1CCc2cc(C(=O)CN3CCCCC3)ccc21,-12%,-7,0.0%,-18%

# Not a retest: entries from further up.
SMILES,miR-21 reporter,GLA inh pH 4.5,Rango complex inh,Rango release inh
COC(=O)CNC(c1ccccc1)c1cc(Br)ccc1N (stereo unspecified),-1%,-14,-1.4%,2%
CCOC(=O)c1c(NC(=O)CN2C(=O)NC3(CCCC3)C2=O)sc(C)c1CC,nt,nt,-1.3%,16%
NC(=O)CC(NC(=O)c1ccccc1)c1ccc(NCCc2ccc(Cl)cc2)c([N+](=O)[O-])c1 (stereo unspecified),-7%,4,0.0%,5%
COc1ccc(N(Cc2ccccc2)S(=O)(=O)c2ccc(C)cc2)cc1,5%,-3,-2.4%,-5%
COc1ccc2cc(-c3nc4ccccc4n3C)c(=O)oc2c1,-55%,1,?,?
Cc1cc(NC(=O)c2cc(-c3ccccn3)nc3ccc(Br)cc23)no1,3%,nt,-0.1%,3%
CC(=O)N1CCc2cc(C(=O)CN3CCCCC3)ccc21,-12%,-7,0.0%,-18%

# Further structures.
SMILES,miR-21 reporter,GLA inh pH 4.5,Rango complex inh,Rango release inh
COc1ccc(NC(=O)CCNS(=O)(=O)c2ccc(C)c(C)c2)cc1OC,-4%,nt,2.5%,1%
NC(=O)CSc1nc(-c2ccccc2)c(-c2ccccc2)o1,-11%,1,1.2%,5%
CCCNC(=S)N1CCC(NC(=O)Nc2ccc(C)cc2)CC1,1%,-1,-4.7%,-1%
COc1ccc(-c2cc3cc(-c4cc(OC)c(OC)c(OC)c4)ccc3o2)cc1,nt,nt,1.5%,0%
S=C(Nc1ccc(Cl)cc1)N1CCCC1,-31%,3,-1.3%,2%
O=C(Nn1cc(C(=O)N2CCN(c3ccccc3F)CC2)c2ccccc2c1=O)c1cnccn1,8%,3,1.8%,-4%
O=C(CCc1nnc2n(Cc3ccccc3)c(=O)c3ccccc3n12)NCCN1CCOCC1,-2%,nt,3.4%,13%
CNC(=O)C1CC(=O)N(c2ccc(F)c(Cl)c2)C1 (stereo unspecified),-4%,13,0.9%,15%
COC(=O)/C(=N\Nc1ccc(Cl)cc1)Sc1nnc(-c2ccc(OC)cc2)n1C,1%,0,-0.5%,-3%
COC(=O)C1=C(C)N(C(C)C)C(=O)C1(NC(=O)C1CCCCC1)C(F)(F)F (stereo unspecified),-5%,9,0.0%,6%
CCOC(=O)C(Cc1ccccc1)C(=O)Nc1nccs1 (stereo unspecified),0%,7,0.0%,-3%
Cn1c(NC(=O)c2ccccc2F)cc(=O)n(C)c1=O,-12%,-7,-4.9%,-1%
COc1ccccc1NS(=O)(=O)c1cc(-c2cc(C)no2)ccc1OC,22%,nt,-0.2%,-3%
CCCN(c1ccc(C(C)C)cc1)S(=O)(=O)c1c(C)[nH]c(=O)[nH]c1=O,2%,-12,0.7%,-9%
Cc1ccc(CN2CCN(/N=C/c3cccnc3)CC2)c(C)c1,0%,7,-1.5%,17%
Cc1ccc(NC(=O)CCC(=O)NNC(=S)Nc2ccccc2)c(C)c1,-1%,0,-0.6%,1%
COc1ccc(Cl)cc1NC(=O)CN1CCC(NC(=O)C2CC2)CC1,6%,nt,2.6%,5%
CC(C)Oc1ccc(/C=N/NC(N)=S)cc1,-16%,6,-0.1%,2%
CCOc1ccc(-c2nnn(CC(=O)Nc3cccc(OC)c3)n2)cc1OCC,-6%,-8,-3.6%,3%
Cc1cc(C)n(CCC(=O)N=Nc2c(O)[nH]c3ccc(Br)cc23)n1,4%,-8,2.1%,5%
CCCn1c(N)c(C(=O)CSc2nnc(Cc3cccs3)n2C2CC2)c(=O)n(C)c1=O,nt,nt,-0.7%,7%
O=C(Cn1c2c(c(=O)n3ncnc13)CCC2)N/N=C/c1ccc(Cl)cc1,1%,7,-0.3%,2%
COc1ccc(/C=C(\C#N)C(=O)Nc2ccc3[nH]c(=O)[nH]c3c2)cc1,-1%,3,?,-27%
C/C(=N\NC(=O)c1cccc2ccccc12)c1cccs1,-54%,nt,2.5%,-13%
CCn1cnc2c1c(=O)n(CC(=O)Nc1ccc3c(c1)OC(F)(F)O3)c(=O)n2Cc1ccccc1,0%,0,-0.3%,-5%
SMILES,miR-21 reporter,GLA inh pH 4.5,Rango complex inh,Rango release inh
Cc1nc(C)n(CC(O)COc2ccc3ccccc3c2)n1 (stereo unspecified),-18%,4,-4.1%,7%
CC(C)CCNC(=O)C(c1ccco1)N(C(=O)Cn1nnc2ccccc21)c1ccc2c(c1)OCO2 (stereo unspecified),-7%,5,-4.8%,?
O=C(Nc1cc(C(F)(F)F)ccc1N1CCCC1)c1cccnc1,-8%,14,1.4%,8%
COc1nc(Cc2ccc(Cl)cc2)nc2ccccc12,1%,-2,3.3%,15%
COCCn1c(SCC(=O)NC(=O)NCc2ccccc2)nc2ccccc2c1=O,nt,nt,0.7%,-12%
COc1ccc(Cn2c(=O)[nH]c3cc(C(=O)N4CCN(c5ccc(OC)cc5)CC4)ccc3c2=O)cc1,7%,nt,-0.5%,-18%
CCn1c(CNC(=O)C23CC4CC(CC(C4)C2)C3)nnc1SCC(=O)Nc1nnc(C)s1,0%,9,-0.6%,0%
COc1ccc(NC(=O)C2CCCN(c3nn4c(=O)cc(C)nc4s3)C2)c(OC)c1 (stereo unspecified),-5%,nt,-4.6%,-16%
COc1ccc(C)cc1S(=O)(=O)Nc1cccc(C)c1,-5%,-8,13%,1%
Cc1ccc(C)c(CN2CCC(CNC(=O)CCc3nnc4ccc(N5CCC(C)CC5)nn34)CC2)c1,5%,nt,?,0%
O=C(C(c1ccccc1)c1ccccc1)N1CCC(c2nc(-c3ccccc3Cl)no2)CC1,nt,nt,-0.3%,14%
